GLA inh pH 4.5: alpha-galactosidase A (human) inhibition, pH 4.5. purified enzyme, 4-MU-alpha-Gal fluorescence, pH 4.5. 230,000 tested, under 10 active. AID 1467. P06280. activity change, negative = inhibition, % at 105 µM; inconclusive = small, poorly fitted or top-dose-only inhibition, or a rising curve; inactive = flat fitted curve, though single readings scatter; no compound was filed as active;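 further: 0% = full activity with enzyme and -100% = basal without enzyme; dose as in the result columns while the protocol names 77 µM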
Rango complex inh: prevents formation of the Rango-importin beta complex | Potency, µM (doses to about 92.2 µM), without a hit: at the top dose inhibition of complex formation | 340,000 tested, 0.031% active | Q14974 | Rango CFP/YFP FRET sensor + importin beta, 45 min; active = rising FRET ratio curve, often small or poorly fitted; inconclusive = mostly compound fluorescence or quenching in the first reads; inactive = flat curves in all reads;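 further: potency means the concentration at half of the fitted maximal effect; 0% = DMSO wells and 100% = buffer wells lacking importin beta; nearly all actives have a fitted effect of over 15% in size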
Target sequence (Q14974 whole entry, looked up): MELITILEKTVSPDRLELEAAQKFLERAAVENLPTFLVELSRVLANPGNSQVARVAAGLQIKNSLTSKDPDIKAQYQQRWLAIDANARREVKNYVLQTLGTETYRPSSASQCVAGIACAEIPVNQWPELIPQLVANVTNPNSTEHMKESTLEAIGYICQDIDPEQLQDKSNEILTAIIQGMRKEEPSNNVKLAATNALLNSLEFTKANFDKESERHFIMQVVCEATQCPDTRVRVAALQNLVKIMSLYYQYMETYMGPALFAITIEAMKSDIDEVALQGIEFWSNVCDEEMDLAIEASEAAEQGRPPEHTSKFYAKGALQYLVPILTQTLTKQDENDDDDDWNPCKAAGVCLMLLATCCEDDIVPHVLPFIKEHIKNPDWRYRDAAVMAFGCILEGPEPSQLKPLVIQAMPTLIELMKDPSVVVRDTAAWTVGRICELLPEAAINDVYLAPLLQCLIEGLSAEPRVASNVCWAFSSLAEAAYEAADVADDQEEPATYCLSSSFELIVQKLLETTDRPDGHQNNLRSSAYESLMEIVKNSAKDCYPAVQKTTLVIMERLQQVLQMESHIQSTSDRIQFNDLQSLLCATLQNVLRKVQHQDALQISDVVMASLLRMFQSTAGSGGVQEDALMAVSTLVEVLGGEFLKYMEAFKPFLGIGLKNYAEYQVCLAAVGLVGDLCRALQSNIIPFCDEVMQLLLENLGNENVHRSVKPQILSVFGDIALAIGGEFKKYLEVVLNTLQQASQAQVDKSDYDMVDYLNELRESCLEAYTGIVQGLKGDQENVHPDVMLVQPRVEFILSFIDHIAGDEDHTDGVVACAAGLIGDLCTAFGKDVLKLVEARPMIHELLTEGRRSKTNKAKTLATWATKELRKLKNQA
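FRET biosensor Rango (snurportin 1 IBB between N-terminal EYFP and C-terminal Cerulean), 50 nM in PBS/1 mM DTT/0.02% Tween-20/0.1% BSA, preincubated 5 min RT with compound; 0.125 microM importin beta added, 45 min RT, CFP/YFP FRET ratio read.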
miR-21 reporter: raises the signal of a miR-21 reporter; Potency, µM (doses to about 38.3 µM), without a hit: at the top dose reporter change, positive = more light; AID 2288; HeLa miR-21 FLuc reporter, luciferase, 48 h; 340,000 tested, under 10 active; active = well fitted rising curve with a large enough effect; inconclusive = small, poorly fitted or top-dose-only effect; inactive = no such curve, though single readings can be large or run the other way;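 further: % of control where 0% means no effect; miR-21 action dims this reporter so a rising signal means less miR-21 action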
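Using DMEM plus 10% FBS, HeLa miR-21-FLuc cells are incubated with test compounds (final up to about 40uM) for 48 hours; firefly luciferase signal is then imaged following reagent-mediated lysis.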
Rango release inh: inhibition of RanGTP-driven Rango-importin beta dissociation. AID 540253. O95149+P62826. 340,000 tested, 0.071% active. Potency, µM (top dose mostly 46.1 µM), for the others: top-dose activity change, negative = inhibition. Biochemical FRET Rango-importin beta, RanGTP-induced dissociation; active means falling FRET ratio curve, often poorly fitted, with flat reads before Ran was added; inconclusive means other falling curves, or compound fluorescence or quenching; inactive means flat or rising ratio curve;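 further: potency means the concentration at half of the fitted maximal effect; % of control where 0% means no effect; nearly all actives have a fitted effect of over 45% in size; -100% = wells without RanGTP and RCC1; the record marks most hits as doubtful in a second field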
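Rango FRET biosensor (snurportin-1 IBB flanked by N-terminal EYFP and C-terminal CFP10) at 0.1 uM, with 0.25 uM importin beta in PBS, 1mM DTT, 0.02% Tween-20, 0.1% BSA. 0.6 uM Ran, 2mM GTP and 0.2 uM RCC1 were then added for 45 min at room temperature. Inhibition read as loss of FRET rise.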
* marks the source's active call; other numbers are inactive results; ? = inconclusive; . = no result given; & = joins results of further samples; [ ] = another dose, or the depositor's remark. This is a subset, so the mix of outcomes need not match the whole.

GLA inh pH 4.5,Rango complex inh,miR-21 reporter,Rango release inh,mol
-9&7&-2,5.1%&-4.2%&1.0%,0%&5%,18%&4%&11%,CC(C(O)c1ccc(O)cc1)N1CCC(Cc2ccccc2)CC1 (configuration not stated)
.,-2.7%,-1%,27%,CCCc1cc(=O)oc2cc(OCC(=O)NC3CCN(Cc4ccccc4)CC3)ccc12
.,2.7%,2%,-4%,CC(=O)N1CCN(CC(O)COc2ccc(Br)cc2)CC1 (configuration not stated)
-7,4.4%,-7%,-7%,COCCNC(=O)c1sc2ncn(CC(=O)N3CCCCC3)c(=O)c2c1C
-8,-0.5%,-2%,1%,CC1(C)CC(=O)C2=C(C1)C(c1cn(-c3ccccc3)nc1-c1ccccc1)C(C#N)=C(N)O2 (configuration not stated)
-3,-0.6%,-1%,17%,O=c1c(C(c2ccc(F)cc2)c2c(O)nc3n(c2=O)CCCS3)c(O)nc2n1CCCS2
.,-2.2%,.,9%,Cc1ccnc(NC(=O)c2cccc(NC(=O)c3ccc(Cl)c(Cl)c3)c2)c1
-7,0.0%,1%,-10%,CO/N=C/C(=N\Nc1ccc(OC)cc1)C(=O)c1ccc(OC)cc1
0,-6.9%,-36%,-12%,O=C(NCc1cccs1)c1nc(-c2cccs2)no1
4,-2.8%,-7%,5%,Cc1noc(C(=O)Nc2ccccc2C(F)(F)F)c1Cl
-3,1.3%,-3%,0%,Clc1nc2ccccc2nc1-c1ccccc1
7,2.3%,-12%,-6%,Nc1ccccc1SCC(=O)Nc1nccs1
.,1.1%,-2%,-13%,CC(=O)NS(=O)(=O)c1ccc2c(c1)Cc1cc(S(=O)(=O)NC(C)=O)ccc1-2
.,0.4%,.,-7%,Cc1ccc(NC(=O)C(C)OC(=O)c2ccc(Cl)nc2)cc1S(=O)(=O)N1CCOCC1 (configuration not stated)
.,?,.,-5%,C[C@@H]1O[C@@H](O[C@H]2[C@H](Oc3cc(O)c4c(c3)OC(c3ccc(O)cc3)CC4=O)O[C@H](CO)[C@@H](O)[C@@H]2O)[C@H](O)[C@H](O)[C@H]1O (some centres not stated)
-6,-1.7%,-19%,-12%,Cc1cccc(/C(N)=N/OC(=O)CCC2CCCCC2)c1
-11,1.9%,-8%,17%,Cc1ccc(NNC(=O)c2c(F)cccc2Cl)cc1C
10,?,-24%,-12%,Cc1ccc2nc(-c3ccc(NC(=O)COC(=O)c4cncc(Br)c4)cc3)sc2c1
.,-0.2%,-47%,?,Cc1ccc(CNc2ccc(N3CCOCC3)cc2)cc1
4,1.4%,0%,-18%,C=CCn1c(COc2cccc3ccc(C)nc23)nnc1SCC(=O)OC
3,-3.5%,0%,-4%,COc1ccc(OCCN2C(=O)NC(C)(c3ccc(C)cc3)C2=O)cc1 (configuration not stated)
0,0.8%,1%,10%,Cc1ccc(O)c(C2=NCCNC(C(F)(F)F)=C2)c1
-3,3.6%,0%,-13%,C#CCOc1nc(Nc2cccc([N+](=O)[O-])c2)nc(OCC#C)n1
-5,0.1%,-9%,-8%,O=C(NCc1ccco1)/C(=C\c1cccs1)NC(=O)c1cccs1
-4,2.9%,-8%,1%,COC(=O)c1ccccc1SC(CC(=O)c1ccccc1)c1ccc(F)cc1 (configuration not stated)
11,.,2%,.,O=C(O)c1ccc(Cn2c(SCc3cc(=O)n4cc(Br)ccc4n3)nc3ccsc3c2=O)cc1
3,-4.5%,-1%,-5%,COc1ccccc1NS(=O)(=O)c1ccc(S(=O)(=O)N2CCOCC2)cc1
-8,-1.3%,21%,8%,CC(=O)c1ccc(N2CCC(c3cc(-c4ccc(Cl)cc4)n[nH]3)CC2)c([N+](=O)[O-])c1
-7,?,18%,?,COc1cccc(C(=O)Nc2sc3c(c2C#N)CCN(C(C)=O)C3)c1
.,-2.2%,-4%,-11%,Cc1ccccc1CC(=O)NC1CCCc2ccccc21 (configuration not stated)
14,3.8%,-50%,22%,COc1ccc(C(=O)C[n+]2cn(C(F)F)c3ccccc32)c(F)c1
.,2.4%,-25%,-13%,CC(C)C(=O)N1CCN(c2ccc(NC(=S)NC(=O)c3cc4ccccc4o3)cc2)CC1
0,-2.7%,-1%,-9%,COC(=O)c1sccc1NC(=O)c1cc(OC)c(OC)c(OC)c1
3,-8.4%,-4%,-13%,CC(NC(=O)C(NC(=O)C1CCCN1C(=O)OC(C)(C)C)C(C)C)C(N)=O (configuration not stated)
-1,1.1%,0%,-9%,CCOC(=O)c1ccc(S(=O)(=O)N2CCN(C(=O)c3cc(=O)c4ccccc4o3)CC2)cc1
-19,-0.3%,0%,-10%,O=C(Nc1ccc(F)c(F)c1)c1ccccc1-c1ccccc1
0,3.2%,-1%,12%,O=C(Oc1ccc(Br)cc1C(=S)N1CCCCC1)c1cc([N+](=O)[O-])cc([N+](=O)[O-])c1
16,?,-5%,21%,CCNC(=S)N1CCC(NC(=O)C2CCCCC2)CC1
-2,4.9%,-7%,-9%,CC(C)(C)OC(=O)N1CCN(c2ccc([N+](=O)[O-])cc2)CC1
.,-3.2%,.,-12%,COc1ccc(Cl)cc1NC(=O)c1cccc(-n2cnnn2)c1
6,-0.1%,-2%,9%,O=C(O)CSc1nnnn1-c1ccccc1
-7,-2.7%,-6%,-7%,N/C(=N\OC(=O)c1cc(Cl)ccc1Cl)c1ccccn1
1,-3.8%,0%,-7%,CC/C(O)=C1\C(=O)CCCC1=NCc1nc2ccccc2[nH]1
-9,0.1%,-2%,4%,Cc1onc(-c2c(Cl)cccc2Cl)c1C(=O)NC(C)(C)CO
.,-3.2%,0%,4%,COCCN1CC(=O)N2C(c3cccc(OC)c3)c3[nH]c4ccccc4c3C[C@H]2C1=O (some centres not stated)
-15,1.4%,7%,-5%,O=C(OCC(=O)N1CCN(S(=O)(=O)c2ccccc2)CC1)c1ccc([N+](=O)[O-])o1
-2,3.3%,10%,1%,Cc1cc(C)c(-c2cc(NC(=O)CSc3nncn3C)n(-c3ccccc3)n2)cc1C
.,4.7%,-8%,-4%,O=C(CSCc1ccccc1Cl)Nc1ccc(C(=O)O)cc1
4,0.3%,-3%,-4%,CN(C)CCCNCCCNC(=O)/C(=N\O)c1ccccn1
-2[21.1 µM],3.5%,12%,9%,O=C(Nc1cccc([N+](=O)[O-])c1)Nc1cccs1
-6,-0.5%,-12%,0%,CC(C)NC(=O)c1cc2c(C(F)(F)F)nn(C)c2s1
.,0.4%,.,-6%,Cc1ccc(CNC(=O)CCn2cc(-c3ccc(F)cc3)nc2-c2ccncc2)cc1
.,?,.,40%,O=S(=O)(NCC(c1ccco1)N1CCc2ccccc2C1)c1ccc(Br)cc1 (configuration not stated)
-2,-3.6%,1%,0%,CCn1cc(C2=NC(CCSC)CO2)c2ccccc21 (configuration not stated)
.,-0.5%,.,4%,O=C(Nc1ccc(C(F)(F)F)cc1)c1ccccc1
.,0.2%,.,-6%,CCCn1c(N)c(N(CCOC)C(=O)CSc2c(Cl)cccc2Cl)c(=O)[nH]c1=O
.,-4.0%,-4%,-1%,Cc1ccc(CNC(=O)CSc2nnc3c(n2)[nH]c2ccccc23)cc1
.,-0.1%,-8%,-13%,Cc1ccc(/C=N/NC(=O)Cc2ccc(Cl)cc2)s1
.,-2.3%,.,-12%,Cn1c(N2CCN(c3ccccn3)CC2)nc2c1c(=O)n(Cc1ccccc1Cl)c(=O)n2C
11,-2.1%,10%,5%,Cc1sc2nc(CN3CCN(c4ccc(O)cc4)CC3)[nH]c(=O)c2c1C

Additional records.
GLA inh pH 4.5,Rango complex inh,miR-21 reporter,Rango release inh,mol
.,0.9%,.,2%,COc1ccccc1N(CCC#N)C(=O)COC(=O)CCC(=O)c1ccc(F)cc1
.,-0.4%,8%,-14%,O=[N+]([O-])c1cc([N+](=O)[O-])c2cc3ccccc3nc2c1
-1,?,12%,-28%,Cc1cc2ccc(C)c(C)c2nc1SCC(=O)c1cccs1
.,0.5%,.,2%,CCOC(=O)c1cnc(SCC(=O)OCC(=O)NC2CCS(=O)(=O)C2)nc1N (configuration not stated)
.,-2.4%,3%,-10%,O=C(CCN1C(=O)/C(=C\c2cccc(Br)c2)SC1=S)N1CCOCC1
0,3.0%,-2%,-9%,CCCC(=O)Nc1ccc(Cl)c(NC(=O)c2ccc([N+](=O)[O-])cc2Cl)c1
-3,4.0%,-3%,25%,Cc1ccc(C)n1CCN1CCN(CC(=O)Nc2ccc(S(N)(=O)=O)cc2)CC1
4,0.4%,-1%,0%,CCCC(=O)Nc1ccc(Cl)c(NC(=O)c2cccnc2)c1
-3,4.8%,-5%,-4%,CSc1nnc2c3ccccc3n(Cc3ccccc3)c2n1
.,2.0%,-12%,1%,Cc1ccccc1OCCCN1CCOCC1
4,1.1%,14%,4%,Cc1[nH]nc(-c2ccc(O)cc2O)c1-c1ccc(Cl)cc1
.,2.6%,-7%,-4%,Cc1cc(C)c(S(=O)(=O)NC2CC(C)(C)NC(C)(C)C2)cc1C
.,?,8%,-18%,COc1ccc(-c2nc(CN3CCN(Cc4cccc(F)c4)CC3)c(C)o2)cc1
-4,?,-6%,?,CCc1cc2c(=O)c(-c3nc4ccccc4n3C)c(COCC(=O)O)oc2cc1O
.,-0.4%,.,0%,CC(=O)N[C@@H](Cc1c[nH]c2ccccc12)C(=O)OCC(=O)Nc1cc(C)on1
.,-3.3%,.,7%,Cc1ccc(-c2noc(CN(C)C(=O)c3ccc(Br)o3)n2)cc1
.,6.7%,.,2%,Cn1c(=O)c2[nH]c(C3CC4CCC3C4)nc2n(C)c1=O (configuration not stated)
12,1.3%,0%,10%,O=c1[nH]c2ccc(NC(=S)NCCc3ccccc3)cc2[nH]1
.,2.5%,-3%,4%,COc1cc(/C=C/C(=O)N[C@@H](Cc2c[nH]c3ccccc23)C(=O)O)ccc1O
-2,-1.4%,-13%,-6%,COc1cc(OC)cc(-c2nc(-c3ccccc3)no2)c1
1,3.7%,-21%,-5%,O=C(N/N=C/c1ccccc1C(=O)O)c1cc(-c2ccc3c4c(cccc24)CC3)n[nH]1
-14&-2,?,.,-11%,O=C1C=CC2=C3c4cc(O)c(O)cc4CC3(O)COC2=C1O (configuration not stated)
-6,-3.7%,1%,-14%,CCCCOC(=O)c1ccc(N/C(=N\S(=O)(=O)c2ccccc2)c2ccccc2)cc1
.,?,5%,?,COc1ccc(C2=NS(=O)(=O)N(C)C(C(=O)NCc3ccc(F)cc3)=C2)cc1OC
4,-3.1%,-2%,-3%,CN(C)Cc1cnc2ccc(Cl)cn12
.,1.2%,-24%,19%,COc1cc(C)ccc1OCCOCCOc1c(C)cc(C)cc1Br
.,11%,-6%,-16%,COc1ccc(C(=O)Nc2ccccc2C(=O)NCC2CCCO2)cc1 (configuration not stated)
-13,-4.6%,-10%,-3%,NC(=O)NC(=O)CSc1nnc(-c2ccco2)n1Cc1ccccc1
-4,4.1%,-2%,1%,Cc1cccc(OCCCC(=O)Nc2ccc(N3CCOCC3)cc2)c1
0,0.6%,-12%,0%,C/C(=N\NC(=O)CSc1nc2nc(C)cc(C)n2n1)c1ccccc1
6,2.2%,-3%,8%,Cc1cc(N2CC(=O)N(CCc3ccccc3)C(=O)C2)n2ncnc2n1
-5,-3.4%,-19%,7%,CC(C)(C)NC(=O)c1ccc(Sc2ccccc2)c([N+](=O)[O-])c1
-1,-0.8%,-2%,0%,COc1ccc(/C=C/C(=O)NCCN2CCOCC2)cc1OC

Fetched by structure from the list above, five records:
GLA inh pH 4.5,Rango complex inh,miR-21 reporter,Rango release inh,mol
-4,4.1%,-2%,1%,Cc1cccc(OCCCC(=O)Nc2ccc(N3CCOCC3)cc2)c1
.,2.6%,-7%,-4%,Cc1cc(C)c(S(=O)(=O)NC2CC(C)(C)NC(C)(C)C2)cc1C
-2,-1.4%,-13%,-6%,COc1cc(OC)cc(-c2nc(-c3ccccc3)no2)c1
.,-2.4%,3%,-10%,O=C(CCN1C(=O)/C(=C\c2cccc(Br)c2)SC1=S)N1CCOCC1
4,0.4%,-1%,0%,CCCC(=O)Nc1ccc(Cl)c(NC(=O)c2cccnc2)c1
